# GIRK2 act: activators of human GIRK2 potassium channels | G protein-activated inward rectifier potassium channel 2 (Homo sapiens), P48051 | HEK293-GIRK2 thallium flux, Thallos fluorescence | calls only for hits at 25 µM | actives 0.05% (n = 63,000) | AID 1259325, 2017;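 active = among the strongest 0.2% of first-round signals and kept after retests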;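 note: first round at about 10 µM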
# Target sequence (P48051 whole entry, looked up): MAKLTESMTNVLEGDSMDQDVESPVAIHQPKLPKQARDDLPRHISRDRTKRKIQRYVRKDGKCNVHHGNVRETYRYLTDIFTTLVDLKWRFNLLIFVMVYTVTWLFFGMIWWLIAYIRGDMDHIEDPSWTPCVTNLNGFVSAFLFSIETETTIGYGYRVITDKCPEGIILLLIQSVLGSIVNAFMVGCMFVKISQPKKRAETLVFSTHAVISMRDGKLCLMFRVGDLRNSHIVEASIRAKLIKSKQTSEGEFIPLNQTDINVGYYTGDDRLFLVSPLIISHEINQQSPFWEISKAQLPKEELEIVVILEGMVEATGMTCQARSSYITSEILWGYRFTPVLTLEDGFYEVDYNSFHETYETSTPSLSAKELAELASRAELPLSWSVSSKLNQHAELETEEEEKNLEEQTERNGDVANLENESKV
# Calls only; i = inactive. Only part of the results is shown; the hit share may differ from the screen's.
GIRK2 act | SMILES
i | O=C(Nc1cccc(Cl)c1)C1CCN(c2nc3ccsc3c(=O)n2-c2ccccc2)CC1
i | CS(=O)(=O)N1CCC(C(=O)N2CCC(CSC3=NCCS3)CC2)CC1
i | CCc1ccc(NS(=O)(=O)c2[nH]ncc2C(=O)n2nc(C)cc2C)cc1
i | O=C(Nc1ccccc1-c1ccc(=O)[nH]n1)c1ccc(S(=O)(=O)N2CCOCC2)cc1
i | Cc1cc(=O)[nH]c(-n2nc(C3CC3)cc2NC(=O)c2ccc(F)c(F)c2)n1
i | Cc1cccc(S(=O)(=O)Nc2cnc(N(C)C)nc2)c1
i | Cn1cccc1C(CNC(=O)C(=O)Nc1ccc2c(c1)OCCO2)N1CCCC1 (stereo not given)
i | CCc1cccc(NC(=O)Cn2cnc3c(-c4ccc(F)cc4)csc3c2=O)c1
i | C[N+]1(CC(O)COC23CC4CC(CC(C4)C2)C3)CCCC1 (stereo not given)
i | CCOC(=O)N1CCc2c(nc(-c3ccc(F)cc3)n(CC(=O)Nc3ccc(OCC)cc3)c2=O)C1
i | O=C(c1nc2ccccc2s1)N1CC(Oc2nc3c(F)cccc3s2)C1
i | O=C(NCC(O)c1ccoc1)c1cccc(Br)c1 (stereo not given)

# Three entries from above in a different format:
SMILES | GIRK2 act
O=C(c1nc2ccccc2s1)N1CC(Oc2nc3c(F)cccc3s2)C1 | i
Cn1cccc1C(CNC(=O)C(=O)Nc1ccc2c(c1)OCCO2)N1CCCC1 (stereo not given) | i
O=C(NCC(O)c1ccoc1)c1cccc(Br)c1 (stereo not given) | i

# The listing picks up, repeating the 3 entries before the break.
GIRK2 act | SMILES
i | CCOC(=O)N1CCc2c(nc(-c3ccc(F)cc3)n(CC(=O)Nc3ccc(OCC)cc3)c2=O)C1
i | O=C(c1nc2ccccc2s1)N1CC(Oc2nc3c(F)cccc3s2)C1
i | O=C(NCC(O)c1ccoc1)c1cccc(Br)c1 (stereo not given)
i | O=c1n(CCNS(=O)(=O)c2c(F)cccc2F)nc(C2CC2)n1-c1ccccc1
i | CCOC(=O)Cn1c(=O)c2c(nc3n(-c4cc(C)ccc4OC)c(-c4ccccc4)cn23)n(C)c1=O
i | O=C(CSc1cc(-n2cccn2)ncn1)NCc1cccc(C(F)(F)F)c1
i | CCOCCn1c(=O)c2c(nc3n(-c4ccc(C)cc4C)c(C)c(C)n23)n(C)c1=O
i | Cc1cn2c3c(=O)n(C)c(=O)n(C)c3nc2n1CCN1CCc2ccccc2C1
i | Cc1nc(-c2nnn(-c3ccc(F)cc3)c2C)sc1C(=O)NCc1cccs1
i | COc1ccc(CC(=O)Nc2cc(C3CC3)nn2-c2nc3c(c(=O)[nH]2)CCCC3)cc1
i | CCOC(=O)Cn1c(=O)c2c(nc3n2CCN3c2cccc(C)c2C)n(C)c1=O
i | CCOC(=O)c1c(S(=O)(=O)N2CCN(c3ccc(Cl)cc3)CC2)n[nH]c1C
i | COc1ccccc1-n1ncc2c(C(C)C)nnc(SCC(=O)NC(C)C)c21
i | Cc1ccccc1-c1csc2c(=O)n(CC(=O)OC(C)C)cnc12
i | COc1cccc2sc(OC3CN(C(=O)c4csc(-c5ccccc5)n4)C3)nc12
i | CC(=O)c1ccc(S(=O)(=O)NCCN2CCN(C(=O)c3ccsc3)CC2)cc1
i | O=C(CSc1nnc2ccc3ccccc3n12)N1CCOCC1
i | CCCCn1c(=O)[nH]c2c(C(=O)N3CCC(C(=O)OCC)CC3)snc2c1=O
i | Cc1ccccc1-c1ccc(N2CCN(C(=O)NC3CCCCC3)CC2)nn1
i | Cn1cccc(C(=O)NCC2(c3ccccc3)CCOCC2)c1=O
i | CCCCOc1ccc(-c2cc3c(=O)n(CC(=O)Nc4ccc(OC)cc4)ccn3n2)cc1
i | COc1ccccc1CCN1COc2ccc3c(=O)c(-c4ccc(OC)c(OC)c4)coc3c2C1
i | COC1(CNC(=O)/C=C/c2cccs2)CCSC1 (stereo not given)
i | COc1ccc(F)cc1S(=O)(=O)N1CCN(CC(O)C2CC2)CC1 (stereo not given)
i | O=C(c1c(F)cccc1F)N1CCN(CC(O)c2cccs2)CC1 (stereo not given)
i | Cn1c(C2CCN(S(C)(=O)=O)CC2)nn(CC(=O)NCC2CCCO2)c1=O (stereo not given)
i | O=C(NCc1nc(-c2ccccc2)no1)C1(c2ccccc2)CCOCC1

# Part of the list above, comma-delimited:
Structure,GIRK2 act
Cc1ccccc1-c1ccc(N2CCN(C(=O)NC3CCCCC3)CC2)nn1,i
Cn1cccc(C(=O)NCC2(c3ccccc3)CCOCC2)c1=O,i
CCCCOc1ccc(-c2cc3c(=O)n(CC(=O)Nc4ccc(OC)cc4)ccn3n2)cc1,i
COc1ccccc1CCN1COc2ccc3c(=O)c(-c4ccc(OC)c(OC)c4)coc3c2C1,i
COC1(CNC(=O)/C=C/c2cccs2)CCSC1 (stereo not given),i
COc1ccc(F)cc1S(=O)(=O)N1CCN(CC(O)C2CC2)CC1 (stereo not given),i
O=C(c1c(F)cccc1F)N1CCN(CC(O)c2cccs2)CC1 (stereo not given),i

# Continuation.
GIRK2 act | SMILES
i | CCOc1ccc(-c2noc(-c3ccc[nH]c3=O)n2)cc1OC
i | CCCc1nnsc1C(=O)Nc1nc2c(F)cc(F)cc2s1
i | Cc1ccc(S(=O)(=O)c2cnc3ccccc3c2N2CCC(C(N)=O)CC2)cc1
i | O=C(c1nnn(-c2ccc(F)cc2)n1)N1CCN(c2ccccc2Cl)CC1
i | O=C(c1cccs1)N1CCN(c2ccc3nnc(C4CC4)n3n2)CC1
i | COc1ccc(N(C)c2nnc(-c3ccc(NC(=O)c4ccco4)cc3)s2)cc1
i | COc1cc(/C=C/C(=O)NCC2(c3ccc(F)cc3)CC2)cc(OC)c1OC
i | CN(c1ccccc1)c1nnc(-c2ccc(NC(=O)Cc3cccs3)cc2)s1
i | CCOC(=O)c1cnn2ccc(NC(=O)CCc3ccc(OC)cc3)cc12
i | CSc1ccc(/C=C2\C=C(CC(=O)NCc3ccc(Cl)cc3)c3cc(F)ccc32)cc1
i | COc1cccc(Oc2cncnc2-c2ccc(OC)cc2O)c1
i | COc1cccc2cc(C(=O)NC3CCS(=O)(=O)C3)oc12 (stereo not given)
i | O=C(CSc1ncccc1-c1nc(C2CC2)no1)Nc1ccc2c(c1)OCO2
i | O=C1C2N=NN(Cc3nc(-c4ccccc4)no3)C2C(=O)N1c1ccc(F)cc1 (stereo not given)
i | O=C(CSc1nc2ccccc2c(=O)n1Cc1ccco1)Nc1ncn[nH]1
i | CN(C)S(=O)(=O)c1ccc(C(=O)NCC#CCOc2ccccc2C(N)=O)cc1
i | CCCc1cn(-c2ccc(O)cc2)nc1-c1ccc(O)cc1
i | CCCOC(=O)c1ccc(OCC(=O)c2ccc(O)cc2O)cc1
i | O=C(Cn1nc(N2CCSCC2)c2ccccc2c1=O)Nc1ccc2c(c1)OCCO2
i | CCOc1ccc(C(=O)NCCCS(=O)(=O)N2CCc3ccccc3C2)cc1
i | CCCn1c(C2CC(=O)N(Cc3ccccc3)C2)nc2ccccc21 (stereo not given)
i | COc1cccc(-n2nnc(-c3nc(C)c(C(=O)NCc4ccc(SC)cc4)s3)c2C)c1
i | COc1ccc(-c2noc(-c3c(SC)nn(CC(=O)Nc4cc(C)cc(C)c4)c3N)n2)cc1OC
i | Cn1c(=O)[nH]c(=O)c2c1nc(N1CCN(CC(N)=O)CC1)n2Cc1ccccc1Cl

# 2 entries from above in another layout:
compound: O=C(Cn1nc(N2CCSCC2)c2ccccc2c1=O)Nc1ccc2c(c1)OCCO2
  GIRK2 act: i
compound: CCOc1ccc(C(=O)NCCCS(=O)(=O)N2CCc3ccccc3C2)cc1
  GIRK2 act: i

# Next records:
GIRK2 act | SMILES
i | O=C(CCCN1C(=O)c2ccccc2C1=O)N1CCOC2(CCOCC2)C1
i | COc1ccc(-n2ccn(CC(=O)Nc3ccccc3)c(=O)c2=O)cc1
i | Cc1ccccc1-c1nc(S(=O)(=O)c2ccccc2)c(N2CCOCC2)o1
i | COc1ccc(Cc2nnc(Nc3cc(C)ccc3C)[nH]c2=O)cc1
i | Cc1ccc(NC(=O)Cn2cnc3c(-c4ccc(F)cc4)csc3c2=O)c(C)c1
i | O=c1c(-c2nc(-c3ccccc3Cl)no2)cccn1Cc1cc(=O)n2ccccc2n1
i | CCc1noc(-c2ccc(SCC(=O)Nc3ccc(Br)c(C)c3)nc2)n1
i | COc1ccc(NC(=O)Cn2cc(S(=O)(=O)N3CCCC3)ccc2=O)cc1
i | COc1ccc(NC(=O)c2cn(-c3cc(N(C)C)ncn3)cn2)cc1Cl
i | Cc1ccccc1OCc1ccc(C(=O)N2CCOCC2)o1
i | Cc1cc(N)nc(Nc2ccc(Br)cc2)n1
i | Cc1ccc2c(Nc3ccc(S(N)(=O)=O)cc3)c(C(=O)N3CCCCC3C)cnc2n1 (stereo not given)
i | Cc1nnsc1C(=O)N1CCCC(c2nnc(-c3ccc4c(c3)OCO4)o2)C1 (stereo not given)
i | CCOC(=O)N1CCN(C(=O)c2cc(C3CC3)on2)CC1
i | Cc1ccc2nc3c(cc(C(=O)NCCCn4ccnc4)n3Cc3ccccc3)c(=O)n2c1
i | CCCCOc1ccc(C(=O)N2CC(c3nc(-c4cccc(Cl)c4)no3)C2)cc1
i | O=C(/C=C/c1ccccc1)N1CCC(CSC2=NCCS2)CC1
i | O=C(Nc1ccccc1)OC1CCCC(NS(=O)(=O)C2CC2)C1 (stereo not given)
i | CCOC(=O)c1ccc(NC(=O)C2COCC(=O)N2Cc2ccccc2)cc1 (stereo not given)
i | Cn1c(CN2CCN(C(=O)c3nc4ccccc4s3)CC2)nc2ccccc21
i | Cc1ccc(S(=O)(=O)NC(=O)Nc2nc3ccc([N+](=O)[O-])cc3s2)cc1
i | COC(=O)c1ccc2c(c1)C(=Cc1cc(Br)c(O)c(Br)c1)C(=O)N2
i | C=CCn1c(N2CCCC(C)C2)nc2c1c(=O)[nH]c(=O)n2C (stereo not given)
i | CC(C)Cn1c(SCC(N)=O)nc2c1c(=O)[nH]c(=O)n2C
i | COC(=O)CCn1c(=O)c2c(nc3n(Cc4ccco4)c(C)c(C)n23)n(C)c1=O
i | O=C(CC1CCCCC1)N1CCN(CC(O)C2CC2)CC1 (stereo not given)
i | COc1cccc(Nc2nn3c(=O)c4cc5c(cc4nc3s2)OCO5)c1
i | O=C(NCCC1=CCCCC1)C1(c2cc(-c3ccccc3F)on2)CC1
i | COc1ccc(N2CC(c3nc4ccccc4n3CC(=O)OC(C)C)CC2=O)cc1 (stereo not given)
i | COc1ccc(C)cc1N1CCCn2c1nc1c2c(=O)[nH]c(=O)n1C
i | COc1ccc(CNC(=O)CCc2nnc3ccc(-c4ccccc4)nn23)cc1OC
i | COc1ccc(-c2ccc(=O)n(CCNS(=O)(=O)c3cc(C)ccc3C)n2)cc1
i | COc1ccccc1S(=O)(=O)NCC(O)c1ccc2c(c1)CCO2 (stereo not given)
i | COC(=O)c1cccc(Nc2nn3c(=O)c4cc(Cl)ccc4nc3s2)c1
i | Fc1cccc(-c2noc(-c3cc(N4CCN(c5ccccn5)CC4)nc4ccccc34)n2)c1
i | Cc1nc2ccccn2c1C(=O)Nc1ccc2c(c1)C(=O)N1CCCCC1CCO2 (stereo not given)
i | COc1ccccc1-c1nnc(NC(=O)c2ccc(C)cc2)o1
i | Cc1ccc2c(c1)CCCN2C(=O)c1ccc(-n2ccnc2C)nn1
i | COc1ccc(C)cc1NC(=O)C(=O)NCC1(c2ccccc2)CCOCC1
i | CCN1C(=O)C(C)(C)COc2cc(NC(=O)/C=C/c3ccco3)ccc21
i | CCCNC(=O)C1CCN(c2ccc(SCC(=O)Nc3ccccc3C(=O)OCC)nn2)CC1
i | Cc1nn(-c2ccccc2)c2nc(-c3cccc([N+](=O)[O-])c3)n3c4ccccc4nc3c2c1=O
i | CCc1ccc(OC)c(S(=O)(=O)NCCN2CCN(c3ccccc3F)CC2)c1
i | O=C(O)c1cn[nH]c1S(=O)(=O)N1CCSCC1
i | CCCCC/C=C\C/C=C\C/C=C\C/C=C\CCCC(=O)O
i | COc1ccc(-c2noc(-c3ccc(CS(=O)(=O)Cc4cccc(C)c4)o3)n2)cc1OC
i | Cn1c(=O)n(CC(=O)O)c(=O)c2c1nc1n2CCCN1C1CCCCC1
i | Cc1nnc(C2CCN(CC(=O)NC(C)C34CC5CC(CC(C5)C3)C4)CC2)s1 (stereo not given)
i | O=C(CCC1=NNC2C3CC(c4ccccc4)NN3C=CN12)N1CCC(Cc2ccccc2)CC1 (stereo not given)
i | Fc1cccc(Cl)c1Cn1c(CN2CCOCC2)nc2ccccc21
i | Cc1c(Cl)ccc2c(=O)c(CN3CCOCC3)c[nH]c12
i | COc1cccc(C(=O)NCc2ccc3[nH]c4c(c3c2)CCCC4)c1
i | COc1ccc(NC(=O)Cn2nc(-c3cccs3)c3sc(N4CCCC4)nc3c2=O)c(OC)c1
i | O=S(=O)(c1cccs1)N1CC(Oc2nc3c(Cl)cccc3s2)C1
i | COc1cc(/C=C/C(=O)c2ccccc2O)cc(OC)c1OC
i | CCNC(=O)C(=O)NCC1OCCCN1S(=O)(=O)c1ccc(OC)c(C)c1 (stereo not given)
i | O=C(Nc1nc2c(s1)CN(C(=O)c1cc(-c3ccc(F)cc3)n[nH]1)CC2)c1ccco1
i | CC(C)n1c(=O)[nH]c2c(C(=O)N3CCSCC3)snc2c1=O
i | Cn1c(C(F)(F)F)nn(CCNC(=O)Nc2ccccc2F)c1=O
i | CCOc1ccc(-c2cc(C(=O)Nc3nnc(C(C)C)s3)no2)cc1

# Going on with the list.
GIRK2 act | SMILES
i | COc1ccccc1N1C(=O)N(c2ccc(C)c(C)c2)C2CS(=O)(=O)CC21 (stereo not given)
i | O=C(NCC1CCN(Cc2ccco2)CC1)Nc1ccccc1Cl
i | O=C(c1ccc([N+](=O)[O-])o1)N1CCN(Cc2nnnn2-c2cccc(F)c2)CC1
i | O=C(Cn1nc(-c2cccs2)ccc1=O)Nc1nc2c(s1)CCCC2
i | Cc1cccc2sc(NC(=O)CCc3csc(NC(=O)c4ccc[nH]c4=O)n3)nc12
i | COc1ccccc1NC(=O)Cn1c(=O)nc(-c2ccccc2)c2cc(Cl)ccc21
i | Cc1ccc(NCc2cc3cc4c(cc3n(CC(=O)Nc3ccc5c(c3)OCO5)c2=O)OCCO4)cc1

# Screens: PubChem, Vanderbilt University
